Compound activity: PubChem, National Center for Advancing Translational Sciences (NCATS)
gsp antag: gsp mutant antagonism. Potency, µM (titrated, usually from 76.9 µM), without a hit: at the highest dose activity change, negative = inhibition, hits mostly inhibitors. AID 624288. hit rate 0.4% among 340,000. gsp-mutant cells, cAMP HTRF, 30 min; control for the full effect not named in the record; active = falling curve of any shape with a large fitted effect; inconclusive = falling curve, mostly with a smaller effect; inactive = flat or rising curve; cell line not stated here;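 note: intracellular cAMP measured with PDE inhibitor Ro 20-1724 present during compound exposure; potency is the fitted concentration of half-maximal effect; % is set by controls: 0 for no effect and ±100 for the full control effect; nearly all actives have a fitted effect of over 65% in size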
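HTRF cAMP read-out (cAMP-d2 plus anti-cAMP antibody-K in lysis buffer, 30 min RT). Before lysis, cells are exposed to compounds with […] for 30 min at 37C in DPBS containing Ca/Mg, BSA and Tween 20.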
Sfp PPTase inh: Sfp phosphopantetheinyl transferase inhibition | Q9F4F7 | Biochemical Sfp PPTase activity, qHTS | Potency, µM, for the others: max response, negative = inhibition, most hits filed as inhibitors | hit rate 3.5% among 310,000; active = well fitted inhibition curve with a large enough effect; inconclusive = small, poorly fitted or top-dose-only effect, or another doubt; inactive = no such curve, though single readings can be large or run the other way;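 note: the enzyme is Sfp with the accession as filed and its product quenches rhodamine fluorescence; potency is the fitted concentration of half-maximal effect; 0% = enzyme reaction without inhibitor and -100% = no enzyme wells; top concentration of the series not given in the record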
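With Hepes-Na pH 7.6 buffer containing 10 mM MgCl2, Sfp (15 nM) modified BHQ-2-YbbR (12.5 uM) using rhodamine-CoA (5 uM). Two reads 30 minutes apart at 525/598 nm yielded each well's rate.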
gsp agonist: activates gsp, the McCune-Albright syndrome mutation; Potency, µM (series often up to 76.9 µM), without a hit: top-dose activation (cAMP increase), hits mostly activators; AID 624287; gsp mutant cells, cAMP HTRF, 30 min; control for the full effect not named in the record; hit rate 0.13% among 340,000; active = well fitted activation curve with a large enough effect; inconclusive = small, poorly fitted or top-dose-only effect, or another doubt; inactive = no such curve, though single readings can be large or run the other way; cell line not stated here;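 note: phosphodiesterase inhibitor Ro 20-1724 added with compounds to block cAMP breakdown; potency is the fitted concentration of half-maximal effect; nearly all actives have a fitted effect of over 60% in size; about a fifth of the inactives were tested at one dose only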
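Cells stably selected in G418 were plated at 2000/well, grown 16-24 hr, then given compounds in DMSO with the PDE inhibitor […] (300 uM solution added) for 30 min at 37C; cAMP was read by HTRF.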
Menin MLL FP FL: inhibitors of human menin-MLL interaction, wild-type MLL peptide. 290,000 tested, under 10 active. Fluorescence polarization, fluorescein-MLL peptide displacement from menin. FP activity change, % at 61.4 µM. AID 1766; inconclusive = falling polarisation curve, or a change in total fluorescence; inactive = total fluorescence flat and polarisation flat or rising; no compound was filed as active; the % refers to the polarisation; negative = inhibition;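 note: % of control where 0% means no effect; inhibitors lower the polarisation; unlabelled MLL peptide was the positive control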
PINK1 expr mod: modulators of PINK1 expression. PINK1 immunofluorescence, high-content cytometry, 24 h. Potency, µM (series often up to 76.6 µM), without a hit: at the top dose activation (PINK1 increase), usual class: activators. hit rate 0.2% among 410,000. AID 624263; active = well fitted activation curve with a large enough effect; inconclusive = small, poorly fitted or top-dose-only effect; inactive = flat fitted curve, though single readings scatter; cell line not stated here;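 note: potency is the fitted concentration of half-maximal effect; % of control where 0% means no effect; nearly all actives have a fitted effect of over 65% in size; a mitochondrial uncoupler was the plate control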
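Compound titrations (5 concentrations, 24 h) on a stable cell line; DMSO and CCCP controls. Endpoint: fixed-cell PINK1 immunofluorescence with mitochondrial, cell and nuclear markers, scanned by microplate cytometer.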
ClpP mod: qHTS Assay for Activators of ClpP. purified B. subtilis ClpP, FRET peptide cleavage, 20 min. Potency, µM (highest dose often 57.5 µM), for the others: top-dose activity change, negative = active. hit rate 1.9% among 340,000. AID 651965, 2013; active = well fitted falling curve with a large enough effect; inconclusive = small, poorly fitted or top-dose-only effect; inactive = no such curve, though single readings can be large or run the other way; note: potency is the fitted concentration of half-maximal effect; the source files actives as falling curves though it sought activators and does not explain the sign; nearly all actives have a fitted effect of over 65% in size; many hits overshoot -100%
Target sequence (P80244 whole entry, looked up): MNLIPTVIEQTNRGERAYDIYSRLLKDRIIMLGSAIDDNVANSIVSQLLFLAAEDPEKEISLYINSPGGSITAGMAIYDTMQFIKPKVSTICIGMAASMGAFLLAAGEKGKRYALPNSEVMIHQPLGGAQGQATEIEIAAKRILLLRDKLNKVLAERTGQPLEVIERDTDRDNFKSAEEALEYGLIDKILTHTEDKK
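Buffer: 100 mM Tris/HCl pH8, 100 mM KCl, 0.05% low protease BSA, 2.5% glycerol, 0.01% Tween-20. ClpP 10 microg/mL final; 20 min RT; delta FRET normalized to ADEP and DMSO controls.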
D2 ag: agonists of human D2 dopamine receptor (beta-arrestin) | AID 624465 | activation, % (no concentration beside the values) | hit rate 0.084% among 360,000 | P14416 | DiscoveRx PathHunter D2 beta-arrestin, luminescence, 90 min; 100% = 57 uM dopamine signal; in the data active = activation above about 40%; inconclusive = about 15% to 40%; inactive = below about 15%; note: compound concentration not given in the record; the text of the record calls up to 30% inactive
Target sequence (P14416 whole entry, looked up): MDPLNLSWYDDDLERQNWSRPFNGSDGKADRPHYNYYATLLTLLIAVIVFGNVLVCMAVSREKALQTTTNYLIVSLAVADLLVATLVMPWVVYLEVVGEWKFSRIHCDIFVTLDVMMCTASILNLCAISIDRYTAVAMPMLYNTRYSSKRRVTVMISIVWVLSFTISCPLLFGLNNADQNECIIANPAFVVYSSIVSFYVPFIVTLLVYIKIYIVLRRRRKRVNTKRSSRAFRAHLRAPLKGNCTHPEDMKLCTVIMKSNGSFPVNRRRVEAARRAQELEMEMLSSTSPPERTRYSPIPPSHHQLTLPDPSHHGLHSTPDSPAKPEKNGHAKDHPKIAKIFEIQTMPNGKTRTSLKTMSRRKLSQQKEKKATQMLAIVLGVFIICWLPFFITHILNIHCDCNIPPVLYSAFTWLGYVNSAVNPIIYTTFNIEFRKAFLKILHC
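DiscoveRx PathHunter D2 beta-arrestin cells (2,100/well) attached overnight, then compound-stimulated 90 min at 37 C in HBSS/10 mM HEPES/0.1% Tween-20 buffer; beta-galactosidase complementation read by luminescence after 1 h at ambient temperature. Dopamine 57 uM final (EC100) as control.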
The depositor's hits bear a star; ? = inconclusive; / = not tested or not shown; [ ] = remark or other dose.

SMILES	gsp antag	Sfp PPTase inh	gsp agonist	Menin MLL FP FL	PINK1 expr mod	ClpP mod	D2 ag
NC(=O)NC(=O)COC(=O)c1ccc(OC(F)(F)F)cc1	14%	23%	-132%[inhibitor]	3.4	-0.8%	-13%	3.9
COc1cccc(/C=N/n2c(-c3ccco3)nc3ccccc3c2=O)c1OC	3%	-12%	-11%	13	?	0.6%	-2.9
O=C(c1cc(COc2cccc(C(F)(F)F)c2)on1)N1CCc2ccccc2C1	-17%	/	?	/	8.0%	-2.6%	-5.8
COc1ccccc1N(Cc1cc(=O)[nH]c2ccccc12)C(=O)c1ccc([N+](=O)[O-])cc1	-2%	-8%	-10%[15.4 µM]	3.6	3.6%	/	-2.2
CCOC(=O)N1CCN(C(=O)CN(Cc2ccc(Cl)cc2)S(=O)(=O)c2ccc(C)cc2)CC1	-21%	9%	0%	5.5	3.7%[38.3 µM]	0.6%	-1.1
COc1ccc(CN(C)C(=O)CNC(=O)c2sc3ccccc3c2Cl)c(OC)c1OC	-17%	/	31%	/	-0.8%	-6.8%	0.2
CN1/C(=C\C(=O)COC(=O)c2ccco2)C(C)(C)c2ccccc21	0%	12%	-12%	15	0.8%	-29%	-4.8
COc1ccccc1C(=O)OCC(=O)N1CCC(Cc2ccccc2)CC1	-7%	/	12%	/	1.3%	2.6%	-1.0
Cn1c(N)c(C(=O)CCl)c(=O)n(C)c1=O	4%	-2%	-3%	0.2	1.4%	-2.6%	2.1
N#C/C(=C\c1cn(Cc2cccc(F)c2)c2ccccc12)C(=O)NCc1ccco1	3%	0%	-62%[inhibitor]	-0.1	7.9%	3.1%	2.4
CCN(CC)CCN1C(=O)C(=O)/C(=C(/O)c2ccc(Cl)cc2)C1c1ccncc1 (configuration not stated)	22%	16%	15%	1.0	0.5%	-0.1%	2.3
COc1cc(C(=O)NCC(=O)N/N=C(/C)c2ccc3c(c2)CCCC3)cc(OC)c1OC	-15%	-20%	-14%[15.4 µM]	0.3	2.7%	/	-3.3
COc1ccc(NS(=O)(=O)c2ccc(C)c(C(=O)N(C)Cc3ccc(C)cc3)c2)cc1	-19%	/	4%[15.4 µM]	/	-1.0%	/	-1.5
Cc1cc(NC(=O)c2ccc(C#N)cc2)n(-c2ccccc2)n1	7%	/	-10%	/	-0.7%	-0.8%	-2.2
CC1(Cc2c(Cl)cccc2Cl)C(=O)Nc2cc(-c3ccccc3Cl)ccc21 (configuration not stated)	/	/	/	/	4.6%	-10%	-2.8
Cc1ccc(CN2CC(C(=O)NNC(=O)Cn3ccc(C(F)(F)F)n3)CC2=O)cc1 (configuration not stated)	3%	/	27%	/	0.9%	-0.7%	-0.6
N#CCCN(C(=O)CSc1nc2nc(-c3cccs3)cc(C(F)(F)F)c2c(=O)[nH]1)c1ccccc1	-6%	-10%	11%[15.4 µM]	-0.5	-1.2%	/	-0.3
CCN(CC)C(=S)SCC(=O)Nc1cccc(C(F)(F)F)c1	-26%	/	8%[15.4 µM]	/	1.6%	-1.5%	-4.3
CCOC(=O)c1nc(C)n(-c2ccc(Cl)cc2Cl)n1	1%	-16%	-22%	-0.9	2.3%[38.3 µM]	2.3%	-2.6
CCOC(=O)C(NC(=O)Nc1ncccn1)(Oc1ccccc1)C(F)(F)F (configuration not stated)	0%[15.4 µM]	-7%	4%	-1.8	0.3%	-3.7%	0.0
CC(C)N(C(=O)CSc1n[nH]c(=O)n1CCc1ccccc1)C(C)C	-15%	4%	-18%[15.4 µM]	1.7	0.8%	/	-3.1
O=C(COc1ccc(F)cc1)Nc1nccs1	10%	-3%	-47%[inhibitor]	0.2	1.5%	-0.6%	-2.0
COc1ccc(NC(=O)c2ccc([N+](=O)[O-])cc2[N+](=O)[O-])c(OC)c1	10%	-10%	-18%	-0.1	6.1%	-0.3%	12
CC(=O)N1CC(C)Sc2ccc(S(=O)(=O)NCCc3ccc(C)cc3)cc21 (configuration not stated)	-5%	5%	23%	/	-0.4%	-0.2%	-6.8
O=C(Nc1ccccc1N1CCOCC1)c1ccc2c(c1)C(=O)N(Cc1ccncc1)C2=O	-6%	-2%	-1%	1.9	4.7%	-5.8%	1.7
N/C(=N\OC(=O)Cc1cccc2ccccc12)c1ccccn1	-2%	9%	-3%	1.1	4.0%	0.3%	1.5
COc1ccccc1NC(=O)Cn1c(=O)n(CCc2c[nH]c3ccccc23)c(=O)c2cccnc21	-16%	9%	-63%[inhibitor]	3.2	-0.4%	0.1%	0.0
Cc1ccccc1C1=N/C(=C/c2cccnc2)C(=O)O1	9%	5%	-18%[15.4 µM]	6.4	3.2%	/	0.7
O=C(/C=C/c1ccco1)NC1CCCC1	/	28µM*	4%[15.4 µM]	10.0	-0.1%	/	3.1
COc1ccccc1/C=N/NC(=O)c1ccccc1NS(=O)(=O)c1ccc(C)cc1	?	-17%	-51%[inhibitor]	0.5	2.8%	-7.3%	-0.9
CCn1nc(C(=O)OCC(=O)N(CCC#N)c2ccccc2)c2ccccc2c1=O	-2%	/	-23%	/	0.0%	1.6%	-4.9
O=C(c1cn(-c2ccccc2)nc1-c1cccnc1)N1CCN(S(=O)(=O)c2cccc(F)c2)CC1	2%	/	21%	/	0.2%	-4.2%	-4.2
C=CCSc1nnc(Cc2cc(=O)[nH]c(=O)[nH]2)n1-c1cc(C)ccc1C	11%	-19%	24%	3.1	0.0%	-4.2%	-0.6
CN(C)C(=O)CN1c2cccc3cccc(c23)S1(=O)=O	11%	-5%	18%	-15	0.8%	-29%	-3.1
CS(=O)(=O)N1CCN(c2ccc(NC(=S)NC(=O)c3ccc4c(c3)OCO4)cc2)CC1	0%	14%	25%	-8.8	5.3%	/	-0.4
COC(=O)c1ccc(/C=N/NC(=O)c2cccc(F)c2)cc1	5%	-8%	-38%[inhibitor]	-0.9	-2.9%[38.3 µM]	-2.2%	0.1
O=C(Nc1ccccc1N1CCOCC1)C1CCN(S(=O)(=O)c2ccc(Cl)cc2)CC1	-23%	22%	19%	4.8	-0.6%	0.0%	2.0
COc1cc(NC(=O)c2cc(C(C)C)on2)cc(OC)c1OC	5%	24%	-13%	3.5	4.9%	0.4%	-3.4
CCn1nc(C)c(CN2CCN(Cc3ccsc3)C(CCO)C2)c1C (configuration not stated)	10%	18%	-30%	3.3	0.5%	/	-0.7
Cc1cc(C(=O)Nc2ccc(C)c(S(=O)(=O)N3CCOCC3)c2)c2ccccc2n1	2%	/	5%	/	1.5%	-0.9%	1.5
Cc1nc(N)sc1-c1csc(Nc2ncccn2)n1	0%	-27%	1%[15.4 µM]	-0.6	11%	/	1.6
CC1C2CC(C/C2=N/NC(=O)c2cccs2)C1(C)C (configuration not stated)	11%	7%	-11%	-0.3	-0.7%	-0.8%	-0.6
NS(=O)(=O)c1ccc(CCNC(=O)/C=C/c2ccccc2[N+](=O)[O-])cc1	2%	5%	1%	-3.0	-2.1%	-0.2%	-13
O=C(/C=C/Nc1cccc([N+](=O)[O-])c1)c1cccs1	8%	-16%	7%	10	/	0.1%	-2.8
Cc1ccc(S(=O)(=O)Nc2ccc(O)c3cccnc23)cc1	3%	11%	-2%[15.4 µM]	-7.1	-0.7%	/	9.8
O=C(/C=C(\c1ccc(Cl)cc1)n1cncn1)c1ccc(Cl)cc1	4%	?	?	-1.3	-4.3%[38.3 µM]	-1.9%	1.0
CCCn1c(N)cc(=O)n(C)c1=O	7%	10%	-1%[15.4 µM]	3.5	1.1%	/	-11
Nc1nc(SCc2ccccc2Cl)n[nH]1	9%	22%	-42%[inhibitor]	3.7	2.0%	0.3%	-6.5
Cc1cccc(NC(=O)Nc2ccc(C)cc2Br)c1	7%	18%	-29%	2.9	?	-1.5%	3.7
COCCN(C(=O)c1ccco1)C(C(=O)NC1CCCC1)c1cccs1 (configuration not stated)	13%	12%	1%	4.6	1.1%	-4.0%	-2.3
CCS(=O)(=O)N1CCN(c2cccc(C)c2C)CC1	1%	-6%	-27%	-0.5	-1.3%	-1.9%	-1.5
CC1(c2ccc3ccccc3c2)NC(=O)N(CC(N)=O)C1=O (configuration not stated)	13%	18%	-23%	7.3	1.8%	-2.6%	1.4
COc1ccc(NCc2nnc(-c3ccccc3)o2)cc1	1%	6%	-25%	/	0.8%	14%	0.5
CCCCCCN(C(=O)CCCN1C(=O)NC(c2ccc([N+](=O)[O-])cc2)C(C(=O)OCc2ccccc2)=C1C)C(C)C(=O)NCCCC (configuration not stated)	-4%	/	/	/	-0.2%	2.3%	-1.7
CC1=NN(c2ccc(Cl)cc2)C(=O)C1	-18%	16%	-8%[15.4 µM]	-1.2	6.4%	/	-8.6
O=C(Nc1ccon1)c1cc2c(s1)CCCC2	5%	7%	3%	-0.4	1.9%[38.3 µM]	-3.1%	-2.6
CCN(CC)c1ccc(C=NNc2ccc([N+](=O)[O-])cn2)cc1	3%	/	-2%	/	24%	/	2.9
CCn1ncc(/C=N/NC(=O)c2ccc3c(c2)OCO3)c1C	9%	6%	-11%	1.6	2.4%	-5.7%	-2.2
COc1cscc1C(=O)O	8%	4%	12%[15.4 µM]	7.4	0.0%	/	-3.0
Cn1c(CNc2ccc(O)cc2)nc2ccccc21	-12%	79µM*	-32%[inhibitor]	?	-0.7%	-4.9%	?

The list continues.
SMILES	gsp antag	Sfp PPTase inh	gsp agonist	Menin MLL FP FL	PINK1 expr mod	ClpP mod	D2 ag
CC(NC(=O)c1ccco1)C(=O)N1CCN(c2ccccc2)CC1 (configuration not stated)	8%	10%	?	/	1.5%	0.8%	0.7
CCn1c(SCC(=O)NCCc2ccccc2)nnc1C(C)C	0%	-8%	10%	2.3	4.8%	/	-0.3
C=CCn1c(SCC(=O)Nc2ccc(C(=O)O)cc2)nc2sc(C)c(C)c2c1=O	-2%	/	?	/	1.7%	0.8%	-2.2
CCSc1nc2n(n1)C(c1cccc(F)c1)C1=C(CCCC1=O)N2 (configuration not stated)	-6%	1%	-22%	0.9	1.1%[38.3 µM]	-29%	-0.8
